VDR inh: Inhibitors of the vitamin D receptor (VDR): qHTS; hit rate 0.93% among 400,000; VDR-SRC2-3 peptide fluorescence polarization, 2 h; Potency, µM, inactives show max response, negative = inhibition, most hits filed as inhibitors; active = well fitted inhibition curve with a large enough effect; inconclusive = small, poorly fitted or top-dose-only effect, or another doubt; inactive = no such curve, though single readings can be large or run the other way; also: series mostly up to about 120 µM
Target sequence (P11473 whole entry, looked up): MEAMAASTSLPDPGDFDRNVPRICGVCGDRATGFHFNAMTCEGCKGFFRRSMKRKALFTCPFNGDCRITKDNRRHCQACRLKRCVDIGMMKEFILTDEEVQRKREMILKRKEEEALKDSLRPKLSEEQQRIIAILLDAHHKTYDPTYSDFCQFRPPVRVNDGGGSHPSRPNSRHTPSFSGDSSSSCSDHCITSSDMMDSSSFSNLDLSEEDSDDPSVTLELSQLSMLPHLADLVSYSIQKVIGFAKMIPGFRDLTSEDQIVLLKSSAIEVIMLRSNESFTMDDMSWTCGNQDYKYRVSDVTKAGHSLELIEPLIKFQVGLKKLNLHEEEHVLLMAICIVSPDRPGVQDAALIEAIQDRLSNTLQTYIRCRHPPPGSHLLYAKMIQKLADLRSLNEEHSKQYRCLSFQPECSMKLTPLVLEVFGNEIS
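After 23 nl compound addition and a short centrifugation, plates sat for 2 hours at ambient temperature; polarization of fluorescence then indicated loss of VDR binding to peptide SRC2-3.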
Active calls of the source: *; ? = inconclusive; & = joins results of further samples. % is scaled to controls: 0 for no effect and ±100 for the full control effect; potency is read from the fitted curve at half-maximal effect.

Sample of the layout (7 entries):
SMILES	VDR inh
CCOC(=O)c1ccc(NC(=O)c2cccc3c(=O)c4c([nH]c23)CCCC4)cc1	11.5%
O=C(CN(Cc1ccccc1F)C(=O)Cn1nnc(-c2cccs2)n1)NCC1CCCO1 (stereo not drawn)	8.1%
O=C(O)c1cccc(Cn2c(Cl)c(/C=N/NC(=O)c3cccc(O)c3)sc2=O)c1	5.0%
COc1cccc(OCC(=O)Nc2ccccc2C(=O)Nc2ccc(C(=O)O)cc2)c1	4.1%
CCC/C=C1/CCCOC(C(=O)NCc2ccccc2)(C(F)(F)F)C1 (stereo not drawn)	-10.3%&-25.3%
COCn1c(COc2ccc3ccccc3c2)nc2ccccc21	7.3%
Cc1cccc(-c2nc(CS(=O)CC(=O)NC3CCCC3)c(C)o2)c1 (stereo not drawn)	-24.5%

The whole of this part (from the top)
SMILES	VDR inh
CCOC(=O)c1ccc(NC(=O)c2cccc3c(=O)c4c([nH]c23)CCCC4)cc1	11.5%
O=C(CN(Cc1ccccc1F)C(=O)Cn1nnc(-c2cccs2)n1)NCC1CCCO1 (stereo not drawn)	8.1%
O=C(O)c1cccc(Cn2c(Cl)c(/C=N/NC(=O)c3cccc(O)c3)sc2=O)c1	5.0%
COc1cccc(OCC(=O)Nc2ccccc2C(=O)Nc2ccc(C(=O)O)cc2)c1	4.1%
CCC/C=C1/CCCOC(C(=O)NCc2ccccc2)(C(F)(F)F)C1 (stereo not drawn)	-10.3%&-25.3%
COCn1c(COc2ccc3ccccc3c2)nc2ccccc21	7.3%
Cc1cccc(-c2nc(CS(=O)CC(=O)NC3CCCC3)c(C)o2)c1 (stereo not drawn)	-24.5%
CC1CCCCN1C(=O)CSc1nnc(-c2cccnc2)o1 (stereo not drawn)	-18.6%
C=CCOc1c(Br)cc(CNn2c(C)n[nH]c2=S)cc1OCC	-1.4%
O=S(=O)(NCC1(N2CCOCC2)CCCCC1)c1ccc(F)cc1	-19.7%
CCCCNC(=O)COC(=O)c1cc(C)oc1C	14.6%
O=c1cc(-c2ccccc2)nc(N2CCCCC2)[nH]1	-10.3%
CS(=O)(=O)N(CC(=O)Nc1cc(Cl)ccc1Cl)c1ccccc1Cl	-19.2%
Cc1ccc(-c2nnn(CC(=O)Nc3ccccc3-c3ccccc3)n2)c(-n2cnnn2)c1	-5.7%
O=C(Nc1ccccn1)c1ccc2ccccc2n1	11.5%
N#Cc1cc(C(=O)c2ccccc2OCC(=O)Nc2ccccc2)cn(C2CCCCC2)c1=O	5.1%
COc1ccc(OCCn2cc(C(=O)C3CCCCC3)c3ccccc32)cc1	11.8%
O=C(Cn1cnc2c(cnn2-c2ccccc2)c1=O)NCCc1ccccc1	-9.6%
C=CCNC(=O)c1cc2c(=O)n3cccc(C)c3nc2s1	-4.0%
O=C(COc1ccc([N+](=O)[O-])cc1)NN=C1CCCC1	0.0%

Next section; the last five above are carried over.
SMILES	VDR inh
N#Cc1cc(C(=O)c2ccccc2OCC(=O)Nc2ccccc2)cn(C2CCCCC2)c1=O	5.1%
COc1ccc(OCCn2cc(C(=O)C3CCCCC3)c3ccccc32)cc1	11.8%
O=C(Cn1cnc2c(cnn2-c2ccccc2)c1=O)NCCc1ccccc1	-9.6%
C=CCNC(=O)c1cc2c(=O)n3cccc(C)c3nc2s1	-4.0%
O=C(COc1ccc([N+](=O)[O-])cc1)NN=C1CCCC1	0.0%
COc1cc(/C=C/C(=O)OCC(=O)N2c3ccccc3NC(=O)C2(C)C)cc(OC)c1OC	-9.1%
CCCCc1c(C)[nH]c(C(=O)OCC)c1C	-18.2%
Cc1ccc(S(=O)(=O)NNC(=O)C2Cc3c(ccc4ccccc34)O2)cc1 (stereo not drawn)	4.0%
O=S(=O)(c1ccc(SCCOc2ccccc2)nc1)N1CCCC1	-14.9%
COC(=O)c1ccc(NC(=O)CSc2nnc(-c3cccnc3)o2)cc1	?
CC(C)C(c1nnnn1C1CCCCC1)N1CCN(c2ncccn2)CC1 (stereo not drawn)	2.7%
COc1cccc(C(=O)Nc2cccc(SC)c2)c1	11.7%
COC(=O)c1ccccc1NC(=S)NC(=O)c1ccccc1C	-5.2%
Cc1ccnc(SCCn2c(N(C)Cc3ccccc3)nc3c2c(=O)n(C)c(=O)n3C)n1	-9.9%
CC1=C(C(=O)OC2CCCCCC2)C(c2ccc(Cl)cc2Cl)CC(=O)N1 (stereo not drawn)	0.5%
COC(=O)C1=C(C(=O)OC)SC(=C2C(=S)C(C)(C)N(C(=O)C(C)C)c3ccccc32)S1	-15.5%
O=C(O)c1ccccc1Nc1ccnc(Cl)n1	4.6%
CC1(C)CNC(=O)c2sc(N3CCOCC3)nc2C1	-5.9%
Nc1nc(=O)c2ccccc2s1	?
Cc1c(CCNC(=O)C(C)(C)C)sc2nc(-c3ccc(F)cc3)nn12	6.0%
CC(NC(=O)CSc1n[nH]c(=O)[nH]c1=O)C1CC2CCC1C2 (stereo not drawn)	-11.9%
CCN(c1ccccc1)S(=O)(=O)c1ccc(NC(=S)NC(=O)c2ccc(Br)o2)cc1	9.2%
CC(C)NC(=O)CCn1c(SCc2c(F)cccc2Cl)nc2c(sc3ccccc32)c1=O	4.6%
Cc1cc2c(c(SCC(=O)NCc3ccc(Cl)cc3)n1)C(=O)OC2	13.0%
COc1ccccc1OCC(=O)NCCS(=O)(=O)N1CCN(c2ccccc2OC)CC1	10.5%
O=C(NC(=S)NCC1CCCO1)c1ccco1 (stereo not drawn)	-7.3%
COC(=O)C(=CC(=CN(C)C)C=C(C(=O)OC)C(=O)OC)C(=O)OC	4.1%
O=C(CNC(=O)c1ccccc1F)NCCc1ccc(Cl)cc1Cl	-13.2%
C=CCOc1ccc2ccccc2c1CNn1c(C)n[nH]c1=S	0.4%
CN(C)C(=O)c1ccc(-c2nc(Nc3ccccc3)c3ccccc3n2)cc1	39.8µM*
COc1ccc(NC(=S)NNc2ccc(C(=O)O)cc2)cc1	31.6µM*
CCCN1C(=O)CN(C2CCCCCC2)C(=O)C1c1ccc(C)cc1 (stereo not drawn)	-2.0%
O=C(CSc1nc(O)c(Cc2ccccc2)c(=O)[nH]1)Nc1ccccc1	-1.6%
CC(=O)OC1CC2C(C)(C)C(O)CC[C@@]2(C)C2CC[C@@]3(C)C(c4ccoc4)OC(=O)C4OC43[C@]12C (stereo partly drawn)	7.2%
Cc1cccc(N2CCN(C(=O)c3ccc(N4CCCC4=O)cc3)CC2C)c1 (stereo not drawn)	0.9%
CCOC(=O)c1cccc(NC(=O)N2CCOCC2)c1	-13.2%
Cc1ccc(-n2cc(-c3ccccc3)c3c(NC4CCCC4)ncnc32)cc1	6.8%
COc1ccc(C(CNC(=O)CSc2ccc(Br)cc2)N2CCOCC2)cc1 (stereo not drawn)	?
CC1CCCCN1C(=O)CCC(=O)Nc1nnc(C2CCCCC2)s1 (stereo not drawn)	-22.4%
CCN(C[C@H]1N[C@@](Cc2ccccc2)(C(=O)OC)[C@H]2C(=O)N(C)C(=O)[C@@H]12)C(=O)c1ccccc1	2.6%
NNC(=O)CNc1ccccc1Cl	15.6%
CC(C)(C)C1CCC(=NNc2nc3ccccc3[nH]2)CC1 (stereo not drawn)	0.5%
CCn1cc2nc(SCc3cc(C)ccc3C)n(CCc3ccccc3)c(=O)c2n1	5.2%
O=C(NCCCn1ccnc1)/C(=C/c1ccco1)NC(=O)c1ccco1	-2.2%
CC(c1ccccc1)n1cc(C(=O)NCC2COc3ccccc3O2)nn1 (stereo not drawn)	11.6%
COc1ccc(NC(=O)C2CCCN(S(=O)(=O)c3cccc4nonc34)C2)cc1Cl (stereo not drawn)	-11.1%
COCCNC(=O)C1CCN(C(=O)C2CC(=O)N(c3ccc(C)cc3)C2)CC1 (stereo not drawn)	-8.2%
Cc1ccc(NC2=CC(=O)CC(c3ccccc3)C2)cc1 (stereo not drawn)	14.7%
Cc1ccc(S(=O)(=O)Nc2ccc3[nH]c(=O)sc3c2)cc1C	6.8%
O=C(NCC1(N2CCOCC2)CCCCC1)c1cccc(S(=O)(=O)Nc2ccc(F)cc2)c1	-20.3%
CCCCNC(=S)N1CCn2cccc2C1c1ccc(F)cc1 (stereo not drawn)	-20.1%
COc1ccc(-c2nc(-c3ccncc3)no2)cc1OC	5.0%
CCOC(=O)C1(C)Oc2cccnc2NC1=O (stereo not drawn)	-27.0%
CC(=O)[C@]1(O)CCC2C3CC(C)C4=CC(=O)C=CC4(C)[C@@]3(F)C(O)C[C@]21C (stereo partly drawn)	-2.8%
COc1ccccc1NC(=O)C1CCCN(c2ncnc3onc(-c4ccc(F)cc4)c23)C1 (stereo not drawn)	2.5%
COc1ccc(NC(=O)Cn2nnc(C(=O)Nc3ccc(F)c(Cl)c3)c2N)cc1	22.9%
COc1cc2c(cc1OC)-c1cc(Nc3cccc(C)c3)nc(=O)n1CC2	9.7%
COc1ccc(NC(=O)Cn2cnc3c(nc4n3CCCCC4)c2=O)cc1Cl	14.1%
COc1ccccc1CNC(=O)Cn1cnc2ccccc2c1=O	-25.5%
CC(=O)c1ccc([N+](=O)[O-])c(CS(=O)(=O)c2ccc(Cl)cc2)c1	0.1%
CN(C)C(=O)c1ccc(Nc2nc(-c3cccs3)nc3ccccc23)cc1	6.2%
CCN(CC)CCOC(=O)c1ccc(NC(=O)CNC(=O)C2CCCCC2)cc1	-16.2%
O=C1NC(=O)C(=Cc2ccc(Cl)cc2Cl)S1	?
CCCC(=O)NC(c1ccccc1Cl)c1c(O)ccc2ccccc12 (stereo not drawn)	-10.3%
O=C(OCc1ccc([N+](=O)[O-])cc1)C1CC(=O)N(CCc2ccccc2)C1 (stereo not drawn)	3.3%

Remaining list, next part:
SMILES	VDR inh
CC(Oc1cccc(Cl)c1)C(=O)Nc1ccc(S(=O)(=O)N(C)C2CCN(C)CC2)cc1 (stereo not drawn)	-3.0%
COc1ccccc1NC(=O)COC(=O)c1c[nH]c2ccccc12	12.5%
N#Cc1c(SCC(=O)O)nc(-c2ccccc2)c2c1CCCC2	4.7%
CSc1ccccc1C(=O)NCCOc1ccccc1C	-1.2%
Cc1ccccc1CN(CC(=O)Nc1cccc([N+](=O)[O-])c1)S(=O)(=O)c1ccc(Cl)cc1	11.8%
CCC(=O)CCC(=O)c1ccc2ccccc2c1	-12.1%
CNC(=O)CSc1nc2sccc2c(=O)n1-c1ccccc1	-9.0%
CSCC[C@H](NC(=O)Nc1ccc(Oc2ccccc2)cc1)C(=O)O	5.3%
CCCn1c(=O)c2sccc2n2c(CCCC(=O)NCc3cccnc3)nnc12	-12.7%
O=C(O)c1ccc(COc2ccccc2/C=C2\NC(=O)N(Cc3ccccc3F)C2=O)cc1	-13.5%
O=C(COC(=O)CNC(=O)C12CC3CC(CC(C3)C1)C2)NC1CCS(=O)(=O)C1 (stereo not drawn)	5.1%
Cc1ccc(NC(=S)N2CCN(C3CCCCC3)CC2)cc1	3.6%
NC(=O)C1CCN(CCC(=O)Nc2ccc3c(c2)CCC3)CC1	-10.4%
Cc1csc(NC(=O)c2cnccn2)n1	7.6%
CC(C)c1nc2sc3c(SCCN(C)C)ncnc3c2c2c1CCC2	3.8%
CCOc1ccc(NC(=O)NCc2ccccn2)cc1	-5.9%
COc1ccc(CC(=O)NC(C)c2nnc(SCC(=O)c3ccc(Br)cc3)n2C)cc1 (stereo not drawn)	?
O=C(c1cccc(S(=O)(=O)N2CCc3ccccc32)c1)N1CCN(CCO)CC1	1.0%
Cc1cccc(CSc2nc3ccccc3c(=O)n2C)c1	-6.8%
CCOC(=O)C1CCN(c2c(NCCCN(C)C3CCCCC3)c(=O)c2=O)CC1	3.4%
CCCCn1c(N)c(N(CCC(C)C)C(=O)CCN2C(=O)C3CC=CCC3C2=O)c(=O)[nH]c1=O (stereo not drawn)	-13.6%
Cc1nnc(NC(=O)c2cccc(NC(=O)C(C)C)c2)s1	3.3%
CCCCCC1(C(=O)OCC)CC(CSC(=N)N)OC1=O (stereo not drawn)	-20.5%
COc1ccc(C(=O)N/C(=C/c2cccs2)C(=O)NC(C)(C)C)cc1OC	-4.7%
O=C(NCc1ccc(F)cc1)C(=O)NCC1OCCN1C(=O)c1ccc(Cl)cc1 (stereo not drawn)	0.3%
Cc1noc(NS(=O)(=O)c2ccc(NC(=O)Nc3ccc(Cl)c(Cl)c3)cc2)c1C	1.1%
Cn1nc(C(=O)NNC(=O)c2ccccc2F)c2ccccc2c1=O	11.7%
CCOc1ccc(C(O)c2nccn2C)cc1 (stereo not drawn)	17.0%
COc1ccccc1NC(=O)c1c(N=Cc2cccc([N+](=O)[O-])c2)cnn1C	7.6%
CC1CCN(CCC(=O)Nc2ccc(Cl)cc2)CC1	-7.2%
CSc1nnc(Cn2c(=O)sc3ccccc32)n1CCc1ccccc1	-26.7%
Cc1ccc(Nc2nc(Cl)nc(NC3CCCCC3)n2)cc1	-7.9%
CCn1c(=O)cc(SCC(=O)Nc2ccc3c(c2)OCO3)c2ccccc21	6.8%
Cc1cccc(-n2cc(CN3CCCN(C=O)CC3)c(-c3cccc(F)c3)n2)c1	8.2%
Cc1oc(/C=N/NS(=O)(=O)c2ccccc2)cc1Br	-15.9%
CNCC[C@H](Oc1cccc2ccccc12)c1cccs1	-16.5%&-14.6%
COC(=O)Cc1[nH]c(Cl)nc1C(N)=O	23.5%
Nc1ccc2nn(-c3cc([N+](=O)[O-])ccc3O)nc2c1	3.0%
O=C(Nc1nnc(SCc2cccc3ccccc23)s1)C1COc2ccccc2O1 (stereo not drawn)	-19.9%
O=C(O)C1C2CCC(CC2)C1C(=O)O (stereo not drawn)	7.6%
CC(=O)c1cccc(NC(=O)N2CC(C)OC(C)C2)c1 (stereo not drawn)	10.9%
O=C(CSc1nnc(-c2cccnc2)o1)Nc1ccccn1	-1.6%
Cc1c(C(=O)Nc2ccc(S(=O)(=O)Nc3ncccn3)cc2)oc2ccc(Cl)cc12	-22.9%

An excerpt. The share of hits here may be higher or lower than overall.
